# Source: PubChem BioAssay (several laboratories)
# Arbovirus inh: arbovirus infection inhibition. actives 0.37% (n = 200,000). inhibition, % at 10 µM. AID 1251. arbovirus infection cell-based antiviral screen;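 active = inhibition from about 30%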;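 note: bluetongue infection of BSR cells; cell survival read as ATP light after 72 h; 0% = infected wells without compound and 100% = uninfected wells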
# Mtb betalactam: beta-lactam sensitization of Mtb H37Rv. actives 0.27% (n = 330,000). M. tuberculosis H37Rv growth with meropenem, percent inhibition; hits of this screen are not shown here. inhibition, % at 25 µM;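 active = about 74% or more and at least 40 points above the plate without the antibiotic, then above 30% in a dose series; inconclusive = first-round hits that could not be retested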;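 note: growth measured after seven days incubation then overnight dye step; 0% = bacteria only wells and 100% = bacteria with antibiotic; twin plates without the antibiotic show which effects depend on it; some results filed as inactive read as strong as hits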
# YopH PTP inh: YopH (Yersinia) phosphatase inhibition. fluorescence Ex485/Em525. actives 0.16% (n = 140,000). inhibition, %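 (about 10 µM by stock and volumes)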. AID 898;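 active = inhibition of 50% or more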;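 note: controls were vehicle for no effect and minimum signal wells for full effect; inactives centre near -20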
# Mtb growth: M. tuberculosis H37Rv growth inhibitors, H37Rv strain (AID 1626); actives 0.95% (n = 220,000); M. tuberculosis H37Rv growth inhibition; higher % means a stronger effect; one-dose inhibition, % at 10 µM; IC50 in µM for titrated hits;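 active = confirmed in a dose series; inconclusive = inhibition above 80% but not taken into the dose series; inactive = below 80% or under 30% at every dose of the series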;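 note: bacteria incubated seven days before Alamar blue readout; 0% = bacteria only wells and 100% = bacteria with antibiotic wells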
# RecA splice inh: inhibitors of M. tuberculosis RecA intein splicing; actives 0.75% (n = 290,000); cell-free RecA intein splicing, fluorescence; P9WHJ3; inhibition, %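 (about 9 µM by stock and volumes)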; AID 2221; in the data active = inhibition above about 30%; inconclusive = no clear call, values can overlap the other calls;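 note: 0% = vehicle wells and 100% = reference inhibitor control wells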
# Target sequence (P9WHJ3 whole entry, looked up, canonical isoform): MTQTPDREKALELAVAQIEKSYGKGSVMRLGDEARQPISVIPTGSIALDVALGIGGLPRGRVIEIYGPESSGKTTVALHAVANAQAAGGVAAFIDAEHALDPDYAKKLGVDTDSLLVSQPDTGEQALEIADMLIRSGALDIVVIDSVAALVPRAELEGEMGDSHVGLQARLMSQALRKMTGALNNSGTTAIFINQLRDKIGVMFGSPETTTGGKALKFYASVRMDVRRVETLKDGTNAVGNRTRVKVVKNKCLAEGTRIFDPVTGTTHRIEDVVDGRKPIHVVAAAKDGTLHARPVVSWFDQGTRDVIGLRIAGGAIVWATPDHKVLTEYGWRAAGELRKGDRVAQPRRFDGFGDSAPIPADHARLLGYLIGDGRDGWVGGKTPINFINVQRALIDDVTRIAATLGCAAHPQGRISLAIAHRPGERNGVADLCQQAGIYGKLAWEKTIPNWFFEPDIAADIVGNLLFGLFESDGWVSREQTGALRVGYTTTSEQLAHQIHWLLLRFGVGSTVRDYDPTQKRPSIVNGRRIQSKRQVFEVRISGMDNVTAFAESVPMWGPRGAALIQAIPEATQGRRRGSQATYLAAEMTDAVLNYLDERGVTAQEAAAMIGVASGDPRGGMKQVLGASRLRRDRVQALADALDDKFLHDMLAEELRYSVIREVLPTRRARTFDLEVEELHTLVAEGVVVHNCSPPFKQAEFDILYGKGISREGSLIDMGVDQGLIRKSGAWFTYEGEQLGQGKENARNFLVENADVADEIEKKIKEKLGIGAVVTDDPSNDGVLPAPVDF
# Arbovirus inh repeat: recorded beside Arbovirus inh, whose call it bears; inhibition, %; measured here: 10K subset replicate screen; many hits read low in the repeat;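 first of two repeat runs on a subset; 0% = infected and 100% = uninfected wells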
# An asterisk follows results filed as active; ? = inconclusive; · = no result given.
SMILES,Arbovirus inh,Mtb betalactam,YopH PTP inh,Mtb growth,RecA splice inh,others
CC(C)Oc1ccc(C(=O)NC(=S)Nc2ccc(Cl)c(C(=O)O)c2)cc1,·,7,·,-8%,-2.1,
CCOC(=O)N1CCC(NC(=O)CCC(=O)N2CC(C)Oc3ccc(C)cc32)CC1 (stereo not given),1,-8,-26,-8%,0.7,
CCN1CCN(CCCNC(=O)CCc2nc(-c3ccc(OC)cc3)no2)CC1,1,0,·,1%,-0.4,
CC(C)(CO)Nc1ccc([N+](=O)[O-])cc1[N+](=O)[O-],4,-4,-26,-9%,1.9,
COc1cccc(CNC(=O)Cc2c(C(=O)O)[nH]c3ccccc23)c1,3,5,-65,-2%,-0.4,
CC(=O)Nc1cc(NC(=O)C2C3C=CC(C3)C2C(=O)O)ccc1Cl (stereo not given),-6,-4,-30,5%,2.0,
CC1(C)Cc2nc3sc(C(=O)NCCCO)c(N)c3cc2CS1,-5,-2,·,9%,·,
N/C(=N\OC(=O)c1cccs1)c1cccc([N+](=O)[O-])c1,-7,-9,·,67%,·,
COc1ccc(C(=O)NCCN2C(=O)S/C(=C\c3cccnc3)C2=O)cc1[N+](=O)[O-],·,-8,·,-8%,1.1,
COc1cc2cc(CN(CCCN3CCOCC3)Cc3nnnn3Cc3ccccc3)c(=O)[nH]c2cc1OC,4,-5,·,-8%,-4.0,
Clc1ccc2c(c1)C(c1ccccc1Cl)=NCc1nnc(Br)n1-2,-13,2,-7,-1%,0.4,
C=CCNC(=S)NNC(=O)c1ccc(OCCC)cc1,5,-7,-7,-2%,0.9,
CCN1CCN(C(=O)C2(NC(=O)Nc3cccc(F)c3)CCCCC2)CC1,-5,-4,-31,2%,·,
COc1ccccc1C1NC(=O)NC(C)=C1C(=O)OC1CCCC(C)C1 (stereo not given),·,-6,·,·,2.6,
COc1ccc(-c2noc(CCCC(=O)Nc3cccnc3)n2)cc1OC,·,-7,·,-1%,4.4,
CC(=O)OCC1OC(Nc2cccc(C)c2)C(OC(C)=O)C(OC(C)=O)C1OC(C)=O (stereo not given),-1,-7,-35,5%,1.1,
C/C(=N/NC(=O)c1ccc(O)cc1)c1cccc([N+](=O)[O-])c1,-4,4,-30,6%,-0.5,
CC1CCCN(CCCNC(=O)C2CC(=O)N(c3ccc(F)c(Cl)c3)C2)C1 (stereo not given),9,-4,7,4%,-0.1,
Cc1cc(C)n(-c2nc(C)nc(NCc3ccccc3)n2)n1,7,94,-33,?,1.2,Arbovirus inh repeat=0
CC(C)c1nc2oc3c(NCc4cccnc4)ncnc3c2c2c1CCC2,-10,4,-42,-2%,1.3,
CC(=O)NC(Cc1ccc(N(CCCl)CCCl)cc1)C(=O)NC(C(=O)O)C(C)C (stereo not given),1,2,·,4%,2.4,
N#Cc1ccc(NC(=O)CN2C(=O)NC3(CCCC3)C2=O)cc1Cl,·,-1,·,·,-1.1,
Clc1ccc(Cc2noc(Cc3ccccc3)n2)cc1Cl,-1,0,0,4%,4.9,
CCOC(=O)C1(Cc2ccccc2Cl)CCN(S(C)(=O)=O)CC1,-3,-1,·,-5%,0.4,
COCCCn1c(-c2cccc(Cl)c2)nc2c1c(=O)[nH]c(=O)n2Cc1ccccc1,·,6,·,·,1.0,
SMILES,Arbovirus inh,Mtb betalactam,YopH PTP inh,Mtb growth,RecA splice inh,others
COc1ccc(N2CCn3c2nc2c3c(=O)n(CCCc3ccccc3)c(=O)n2C)c(OC)c1,6,-2,-42,2%,0.7,
O=C(CCS(=O)(=O)Cc1ccc(Cl)cc1)NCCCN1CCOCC1,8,·,-5,0%,2.7,
COC(=O)c1ccc(OC(=O)/C=C/c2ccco2)cc1,·,7,·,·,0.8,
O=C(NCc1ccccn1)c1cc2ccccc2oc1=O,3,-1,-12,-10%,0.4,
c1ccc(CCc2nc(-c3ccccn3)no2)cc1,-1,2,-102,-2%,12,
O=C1c2cccnc2C(Nc2ccc(Cl)cc2)N1Cc1cccs1 (stereo not given),1,-6,·,6%,2.4,
CCOc1ccccc1CNS(=O)(=O)c1cc(-c2cc(C)no2)ccc1C,·,-20,·,·,7.4,
COc1nccnc1NS(=O)(=O)c1ccc(NS(=O)(=O)c2ccc(NC(C)=O)cc2)cc1,-3,-6,-11,-5%,-5.5,
O=C(Cn1c(-c2ccccc2)noc1=O)NCc1ccccc1,1,17,-48,6%,2.4,
O=c1c2nccnc2[nH]c(=S)n1Cc1ccccc1,0,-5,·,-4%,-0.7,
O=C(NCCSc1ncc(-c2ccc(F)cc2)[nH]1)c1ccco1,·,-3,·,·,0.6,
Cc1cc(C)c(/C=C(\C#N)S(=O)(=O)c2ccccc2)[nH]1,·,1,·,12%,5.1,
N#C/C(=C/c1cc(Cl)c(O)c(Cl)c1)C(=O)N1CCCCC1,·,-3,·,·,-2.8,
Cc1ccc(S(=O)(=O)Nc2cc(C)c(O)c(Sc3n[nH]c(C)n3)c2)cc1,·,-4,·,·,-7.2,
CC(C)(C)C(=O)NC(CC(=O)O)c1ccccc1 (stereo not given),7,9,·,0%,4.2,
NNC(=O)c1ccncc1,-2,97,-61,·,-2.4,
O=C(CCl)NNC(=O)c1c(O)c2ccccc2[nH]c1=O,·,34,·,-2%,3.4,
CCCC(=O)Nc1cc(-c2nc3ncccc3o2)ccc1Cl,·,-4,·,·,0.0,
COC(=O)C1C(=O)CC(C)(O)C(C(=O)OC)C1c1ccccc1F (stereo not given),8,2,36,99%,0.2,
COC(=O)C1(C)NC(c2ccc(O)cc2)C2C(=O)N(c3ccc4c(c3)OCCO4)C(=O)C21 (stereo not given),1,1,-10,6%,0.1,
C=CCNC(=O)COc1cc(C)cc(C)c1C,-4,2,·,0%,-2.6,
Cc1ccc(S(=O)(=O)Cn2nnnc2CN2CCN(Cc3ccc4c(c3)OCO4)CC2)cc1,-9,24,-6,-7%,-0.3,
CC(C)c1nnc(NC(=O)CCC(=O)N2CCN(C3c4ccccc4-c4ccccc43)CC2)s1,14,7,-7,5%,-1.6,
COc1ccc(C2=CC(c3ccco3)n3ncnc3N2)cc1 (stereo not given),5,·,·,10%,·,
O=C(NNS(=O)(=O)c1ccc(F)cc1)c1cc2ccccc2cc1O,·,-12,·,·,-335,
SMILES,Arbovirus inh,Mtb betalactam,YopH PTP inh,Mtb growth,RecA splice inh,others
Cc1c(/C=N/O)c2ccccn2c1C(=O)c1ccc(F)cc1,·,10,·,·,-4.4,
Cc1ccc(NS(=O)(=O)c2cccc(C(=O)NCCCn3ccnc3)c2)cc1,·,-3,·,·,2.2,
COc1ccccc1OCC(=O)Nc1c2c(nn1-c1ccccc1)CS(=O)(=O)C2,·,12,·,·,1.4,
COC(=O)c1ccccc1S(=O)(=O)N1CCC(c2nc3ccccc3o2)CC1,6,-2,-25,-2%,3.1,
O=C(NC12CC3CC(CC(C3)C1)C2)N1CCC(O)(c2ccc3c(c2)OCO3)CC1,-6,4,-17,-6%,1.4,
CC1(C)Cc2c(cnn2-c2ccccc2)-c2c1c1ccccc1n2CC(O)CBr (stereo not given),-17,92,-19,9%,7.8,
Cc1ccccc1N(CC(=O)NC1CCCC1)C(=O)c1csnn1,-4,-6,·,4%,-0.5,
Cc1ccc(F)cc1NC(=O)CCc1c(C)nn(-c2ccc(N3CCCCC3)nn2)c1C,·,?,·,·,2.3,
COCCn1c(=NC(=O)c2cccs2)sc2cc(NC(C)=O)ccc21,-4,4,-25,-1%,-0.3,
COCCNC(=S)N/N=C/c1c2ccccc2cc2ccccc12,·,1,·,·,-3.2,
CC1(C)Cc2ccccc2C(=NC(Cc2c[nH]c3ccccc23)C(=O)O)N1 (stereo not given),·,-25,·,·,1.4,
CCOC(=O)c1ccc(NC2Nc3cc(C)nn3S2)cc1 (stereo not given),-2,32,·,97%,2.5,
O=C(Nc1ccc2c(c1)OCO2)c1ccc(NC2CC2)c([N+](=O)[O-])c1,-28,2,-14,10%,-0.8,
NS(=O)(=O)c1ccc(N/N=C/C=C/c2ccccc2[N+](=O)[O-])cc1,·,3,·,·,0.8,
CC(=O)Cc1nsc(Nc2ccc(Cl)cc2)n1,-6,-5,·,-8%,2.6,
Cc1cc2cc(CCNS(=O)(=O)c3ccc(F)cc3)c(=O)[nH]c2cc1C,·,0,·,·,5.2,
CC(C)CCNC(=O)c1onc(CSc2nc3ccccc3[nH]2)c1C(=O)NCCC(C)C,·,-11,·,·,-0.2,
C=CCNC(=S)NNC(=O)COc1ccc2cc(Br)ccc2c1,-5,2,·,12%,0.5,
CC1CC(=O)C=C(O)C1C(=O)OC(C)(C)C (stereo not given),-1,-3,-14,-1%,-4.8,
COC(=O)CCC(=O)OC1(C)C(=O)C2=CN(Cc3ccc4c(c3)OCO4)C(c3ccc(OC)cc3)=CC2=C(Br)C1=O (stereo not given),·,6,·,-13%,-4.5,
CCOC(=O)N1CCC(NC(=O)c2cc3c(-c4ccc(OC)c(OC)c4)nn(C)c3s2)CC1,4,0,-11,2%,-0.1,
CC(=O)N(C)c1ccc(NC(=O)CCN2C(=O)c3ccccc3C2=O)cc1,·,-5,·,·,1.8,
CCc1noc(C)c1C(=O)N(CC)c1nc2c(C)cccc2s1,·,0,·,·,16,
Cc1cccc(CS(=O)(=O)Cc2ccc(C(=O)NCc3cccnc3)o2)c1,2,-14,-11,1%,0.8,
Nc1c(C(=O)Nc2ccc(F)cc2)sc(=S)n1-c1ccccc1F,-10,5,·,11%,3.7,

# Not a retest: an excerpt of the list.
SMILES,Arbovirus inh,Mtb betalactam,YopH PTP inh,Mtb growth,RecA splice inh,others
Cc1c(/C=N/O)c2ccccn2c1C(=O)c1ccc(F)cc1,·,10,·,·,-4.4,
Cc1ccc(NS(=O)(=O)c2cccc(C(=O)NCCCn3ccnc3)c2)cc1,·,-3,·,·,2.2,
COc1ccccc1OCC(=O)Nc1c2c(nn1-c1ccccc1)CS(=O)(=O)C2,·,12,·,·,1.4,
COC(=O)c1ccccc1S(=O)(=O)N1CCC(c2nc3ccccc3o2)CC1,6,-2,-25,-2%,3.1,
O=C(NC12CC3CC(CC(C3)C1)C2)N1CCC(O)(c2ccc3c(c2)OCO3)CC1,-6,4,-17,-6%,1.4,
CC1(C)Cc2c(cnn2-c2ccccc2)-c2c1c1ccccc1n2CC(O)CBr (stereo not given),-17,92,-19,9%,7.8,

# The list continues:
SMILES,Arbovirus inh,Mtb betalactam,YopH PTP inh,Mtb growth,RecA splice inh,others
COc1ccc(/C=N/NC(=O)c2ccncc2)cc1COc1ccc(NC(C)=O)cc1,·,98,·,?,-0.1,
CCCOc1ccc(C(=O)NC(=S)NCc2cccnc2)cc1,6,76,-31,?,1.7,
COc1ccc(OC)c(NC(=O)c2cc(-c3cc(C)cc(C)c3O)n[nH]2)c1,·,-2,·,·,-3.0,
CC(=O)Nc1cc(C(F)(F)F)ccc1OCCOc1ccccc1,·,-2,30,33%,-5.0,
O=C(O)C1CN(C(=O)c2ccccc2)c2cc(Cl)ccc2O1 (stereo not given),·,5,·,·,-1.2,
O=C(NCCC1=CCCCC1)C1CCC(CNc2c(N3CCCC3)c(=O)c2=O)CC1 (stereo not given),·,-8,·,-14%,0.8,
COc1ccccc1-c1cc(C(=O)O)c2c(=O)n(C)c(=O)n(Cc3ccccc3)c2n1,·,-4,·,·,-3.5,
CC[n+]1ccc(C[n+]2ccccc2)c2ccccc21,8,-4,-14,0%,·,
Cc1ccc(-c2cc(C(=O)NCc3ccc4c(c3)OCO4)[nH]n2)c(O)c1C,-6,-23,-51,-11%,-2.0,
CCN(c1ccccc1)S(=O)(=O)c1ccc(NCC2COc3ccccc3O2)nc1 (stereo not given),-21,45,-39,-5%,9.1,
CC(Oc1ccc(Cl)cc1)c1ccnn1S(=O)(=O)c1ccc(Cl)cc1 (stereo not given),-8,5,-21,-1%,-1.5,
CC(C)Sc1n[nH]c(=O)n1-c1ccccc1,·,-4,·,-10%,3.7,
O=C(NC(=S)Nc1ccc2c(c1)OCCO2)c1cccc2ccccc12,3,88,-21,-1%,6.4,
CC(C)CCNC(=O)NC(=O)COC(=O)C1=COCCO1,1,86,-10,26%,-0.6,
Cc1ccc(C)c(-n2nnnc2SCC(=O)Nc2cccc(-c3nnc4n3CCCCC4)c2)c1,6,10,-36,3%,0.0,Arbovirus inh repeat=4
O=C(NC1CCS(=O)(=O)C1)c1cccc(S(=O)(=O)N2CCCCC2)c1 (stereo not given),4,0,-19,0%,-1.7,
CCOc1ccc(S(=O)(=O)N2CCN(CC(O)COc3cccc([N+](=O)[O-])c3)CC2)cc1 (stereo not given),·,1,·,·,-3.8,

# Structural class, the entries above with a cyano group
SMILES,Arbovirus inh,Mtb betalactam,YopH PTP inh,Mtb growth,RecA splice inh,others
N#Cc1ccc(NC(=O)CN2C(=O)NC3(CCCC3)C2=O)cc1Cl,·,-1,·,·,-1.1,
Cc1cc(C)c(/C=C(\C#N)S(=O)(=O)c2ccccc2)[nH]1,·,1,·,12%,5.1,
N#C/C(=C/c1cc(Cl)c(O)c(Cl)c1)C(=O)N1CCCCC1,·,-3,·,·,-2.8,

# Not all compounds are listed; the hit share may differ from the screen's.
